HNF4A DNA FP: change in binding of human HNF4 alpha to DNA; 360,000 compounds, 0.3% hits; HNF4a-FITC DNA binding, fluorescence polarization, 1 h; P41235; activity change, % at 10 µM; in the data active means activity change above about 30%, passing the limit was not always enough;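 further: controls were the assay level and a saturating level of protein; the project sought stronger binding though the title names inhibitors; some compounds called inactive have numbers as strong as hits; positive values seem to mean higher polarization but the record does not say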
Target sequence (P41235 whole entry, looked up): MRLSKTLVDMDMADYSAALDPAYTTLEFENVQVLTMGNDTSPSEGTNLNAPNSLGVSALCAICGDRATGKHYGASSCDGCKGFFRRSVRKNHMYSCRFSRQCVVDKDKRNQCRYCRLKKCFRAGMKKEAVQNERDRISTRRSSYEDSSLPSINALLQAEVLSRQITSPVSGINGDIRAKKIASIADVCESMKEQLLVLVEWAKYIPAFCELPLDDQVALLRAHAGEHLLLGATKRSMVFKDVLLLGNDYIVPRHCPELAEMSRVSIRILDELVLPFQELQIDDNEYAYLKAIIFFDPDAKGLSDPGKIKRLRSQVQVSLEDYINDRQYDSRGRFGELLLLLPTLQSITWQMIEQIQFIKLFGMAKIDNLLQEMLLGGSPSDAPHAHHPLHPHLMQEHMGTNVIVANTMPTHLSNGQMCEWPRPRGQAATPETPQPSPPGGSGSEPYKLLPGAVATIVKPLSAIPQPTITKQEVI
AF4-AF9 inh: blocks AF4 peptide binding to human AF9; P42568; AlphaScreen, biotin-AF4 peptide binding to FLAG-AF9; inhibition, % at 10 µM; 350,000 compounds, 0.47% hits;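 active means every replicate reaching a set inhibition limit, whatever the replicate mean, cut at about 25% in these data; inconclusive means mean inhibition reaches that limit but some replicates miss it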;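 further: 0% = plate neutral control median and 100% = total signal loss; the record names both 10 and 1 µM as test concentration; the first replicate is given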
Target sequence (P42568 whole entry, looked up): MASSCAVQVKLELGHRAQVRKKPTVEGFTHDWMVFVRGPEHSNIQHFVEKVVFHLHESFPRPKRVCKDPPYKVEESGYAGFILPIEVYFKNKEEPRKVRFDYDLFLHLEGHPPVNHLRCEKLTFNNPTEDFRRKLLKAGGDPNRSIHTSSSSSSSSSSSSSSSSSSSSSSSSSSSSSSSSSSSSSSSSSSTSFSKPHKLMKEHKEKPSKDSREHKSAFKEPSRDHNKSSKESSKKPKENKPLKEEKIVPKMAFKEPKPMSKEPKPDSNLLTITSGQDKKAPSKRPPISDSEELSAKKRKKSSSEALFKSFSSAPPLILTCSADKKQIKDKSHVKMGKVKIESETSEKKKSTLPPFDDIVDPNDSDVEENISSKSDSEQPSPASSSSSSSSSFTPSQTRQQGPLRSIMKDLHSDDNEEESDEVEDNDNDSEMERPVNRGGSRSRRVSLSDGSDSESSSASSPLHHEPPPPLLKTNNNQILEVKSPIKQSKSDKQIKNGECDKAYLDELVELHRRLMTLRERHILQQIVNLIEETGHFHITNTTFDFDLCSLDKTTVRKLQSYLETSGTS
FGF22 binding: binders of recombinant human FGF22 by thermal shift; Q9HCT0; SYPRO orange fluorescence; percent of sucrose octasulfate shift, DMSO zero; calls only at 9.99 µM; 340,000 compounds, 1.5% hits; AID 651658;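 active means melting point raised past a set limit in the mean and every replicate; inconclusive means no clear call; three in four hits are not shown here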
Vif A3G: HIV-1 Vif–A3G interaction blockers – biochemical, TR-FRET, GST-Vif 1-94, biotin-A3G peptide, dose response retest, primary screen (AID 1117319); 260,000 compounds, 0.57% hits; TR-FRET GST-Vif / biotin-A3G peptide binding; higher % means a stronger effect; test concentration not given here; strong numbers were not always called active; inhibition, %; hits with a dose series show IC50 in µM;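 active means above the screen mean plus three standard deviations and confirmed in dose response; inconclusive means results disagree or hit not tested in dose response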;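 further: Vif residues 1-94 fused to GST binding biotinylated APOBEC3G peptide 110-148; 0% = full assay without inhibitor and 100% = GST in place of GST-Vif; retest series ran down from 100 µM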
UCH37 DUB inh: inhibitors of human deubiquitinating enzyme UCH37. 330,000 compounds, 0.33% hits. purified proteasome/UCH37, Ub-AMC cleavage fluorescence. inhibition, % (no concentration beside the values);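 active means mean of two replicates above 20%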;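 further: 0% = compound-free wells with enzyme and 100% = wells lacking proteasome; stock transfer was 100 nL into about 20 µL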
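Assay system: Proteasome-bound UCH37. Buffer or medium: pH 7.4 Tris-HCl (50 mM) with ovalbumin, ATP-MgCl2, DTT. Incubation: 30 min preincubation with enzyme, 25 min cleavage at room temperature. Measured by: fluorescence, ex 355 nm, em 460 nm. Read-out basis: percent inhibition. Control set: wells without proteasome as full block, compound-free enzyme plus substrate as uninhibited.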
Ecoli growth: E. coli growth inhibition. Escherichia coli growth, OD600, 23 h; hits give low values. OD600 absorbance (no concentration beside the values). 330,000 compounds, 0.21% hits. AID 1053175;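 active means OD600 absorbance below the run mean of sample wells minus 3.6 SD, in any replicate, cut at about 0.56 in these data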;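 further: stock transfer was 300 nL into about 60 µL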
RanGTP-Impb inh: disruptors of Ran-importin-beta complex formation – biochemical, FRET, CFP-Ran, YFP-importin-beta, homogeneous, primary screen; cell-free CFP-Ran/YFP-importin-beta FRET ratio; inhibition, % (concentration not given with the values); 300,000 compounds, 1.1% hits; AID 2216;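 active means most replicates above 15%; inconclusive means exactly half above 15%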;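 further: 0% = DMSO wells and 100% = Ran loaded with GDP instead of GTP; wells of about 40 µL received 100 nL stock; the first replicate is given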
* hit, by the source's call; i = inactive; ? = inconclusive; . = no result given; & = joins results of further samples.

Second line of a record: HNF4A DNA FP	AF4-AF9 inh	FGF22 binding	Vif A3G	UCH37 DUB inh	Ecoli growth	RanGTP-Impb inh
- CCOc1ccc(NC(=O)CCCn2c(=S)[nH]c3ccsc3c2=O)cc1
 : -3.2	-0.8	i	20.8%	-0.8	0.686	1.3
- CN1CCN(C(=S)Nc2ccc(Cl)cc2Cl)CC1
 : 3.9	.	.	12.8%	-0.8	0.732	0.8
- Cc1ccc2c(c1)N(CC(=O)N1CCCCC1C)C(=O)CO2 (stereo not given)
 : 3.9	-2.7	i	.	3.8	0.704	0.3
- Cc1ccc(CN2C(=O)CCC2C(=O)NCCCN2CCOCC2)cc1 (stereo not given)
 : 6.2	.	.	4.0%	0.6	0.693	8.9
- COc1cccc(CNC(=O)CN2C(=O)CSc3ccc(S(=O)(=O)N4CCCC4)cc32)c1
 : 2.0	-1.8	i	-7.4%	2.5	0.629	-1.0
- CCc1cccc(NC(=O)c2ccc(Br)o2)c1
 : -5.5	.	.	-3.4%	5.5	0.738	1.9
- CCn1c(=O)cc(SCC(=O)N2CCN(C)CC2)c2ccccc21
 : 2.6	.	.	7.0%	-2.0	0.669	0.2
- CCn1cc(C(=O)O)c(=O)c2cnc(N3CCN(C(=S)NC(=O)c4ccc(Cl)cc4Cl)CC3)nc21
 : 3.2	-7.2	i	-10.7%	1.8	0.649	0.0
- CCN1CCN(C(c2ccc(C(F)(F)F)cc2)c2ccc3cccnc3c2O)CC1 (stereo not given)
 : 6.7	84.9*	i	-2.7%	1.2	0.617	1.7
- Cc1ccc(-n2ncc3c(=O)[nH]c(SCC(=O)N4CCC(C)CC4)nc32)cc1C
 : -1.0	6.0	i	?	.	.	.
- O=c1c2ccccc2c(C=NCc2ccccn2)c(O)n1-c1ccccc1
 : 8.0	-2.0	i	4.9%	-15.7	0.711	0.3
- Cc1cc(C)cc(NC(=O)COc2ccc(C(=S)N3CCOCC3)cc2)c1
 : 1.3	-1.8	i	1.3%	2.8	0.675	-0.3
- O=C(NCCC(=O)N1CCN(c2ccccn2)CC1)c1ccc([N+](=O)[O-])cc1
 : -2.3	0.6	i	.	-2.3	0.685	.
- O=C1c2ccccc2/C(=C\C#Cc2ccccn2)N1c1ccccc1
 : -0.1	.	i	.	4.0	.	.
- CC1CCN(CCCNc2cc(NCCO)c([N+](=O)[O-])c3nonc23)CC1
 : -3.5	-4.7	i	.	.	.	-2.5
- COc1cc(C(=O)N2CCC(NC(=O)C(Cc3ccccc3C)NC(C)=O)CC2)cc(OC)c1OC (stereo not given)
 : 4.5	.	.	3.2%	2.5	0.72	0.8
- Cc1nnsc1C(=O)N1CCN(c2cc(C(F)(F)F)ccn2)CC1
 : -1.1	10.6	i	.	0.9	0.688	-1.7
- O=c1[nH]c(=S)[nH]c2c1C(c1cc([N+](=O)[O-])c(N3CCOCC3)cc1N1CCOCC1)O2 (stereo not given)
 : 0.7	1.8	i	-6.9%	13.0	0.702	0.5
- Cc1ccc(NC(=O)CCNS(=O)(=O)c2cccc3nsnc23)cc1F
 : -1.6	-4.5	i	.	-0.7	0.646	0.9
- N#CC(C(=O)NC1CCCCC1)=C1CCCCC1
 : 3.8	.	.	-6.8%	5.4	0.659	0.6
- CC1=NN(C(N)=S)C(=O)C1N=Nc1cccc(C(=O)O)c1 (stereo not given)
 : 0.1	-1.8	i	1.1%	12.4	0.695	?
- CCOC(=O)[C@@H]1C(c2c(OC)cc(OC)cc2OC)=NO[C@@H]1C(=O)OCC
 : -2.0	.	.	?	4.9	0.697	3.6
- O=C(O)c1ccc(OCC(O)Cn2c3ccccc3c3ccccc32)cc1 (stereo not given)
 : -0.8	1.6	i	-4.5%	2.7	0.683	2.5
- COc1cccc(CNS(=O)(=O)/C=C/c2ccc3c(c2)OCO3)c1
 : 0.5	.	.	3.5%	-1.4	0.705	-1.3
- O=C(O)CCNC(=O)CCCn1nnc2ccccc2c1=O
 : 1.5	5.9	i	20.0%	3.5	0.701	?
- Cc1ccc(C)c(Nc2cc(C)nc(-c3ccccc3O)n2)c1
 : 1.8	-9.3	i	-8.0%	-10.1	0.704	-2.8
- CN(C)/C(=N\O)c1c(Cl)cccc1Cl
 : -3.6	1.0	i	.	.	.	6.3
- CCOC(=O)c1ccc[n+](CC(=O)Nc2ccccc2OC(F)F)c1
 : 1.9	-0.8	i	9.6%	-0.9	0.638	-1.4
- CC(Oc1ccc([N+](=O)[O-])cc1Cl)C(=O)Nc1ccc(C(N)=O)cc1 (stereo not given)
 : 2.0	0.9	i	5.4%	5.5	0.638	5.8
- O=C(CSc1ccc(Br)cc1)N1CCOCC1
 : 1.0	-5.6	i	1.6%	2.0	0.685	?

Brought forward from above: two compounds; new compounds follow.
Second line of a record: HNF4A DNA FP	AF4-AF9 inh	FGF22 binding	Vif A3G	UCH37 DUB inh	Ecoli growth	RanGTP-Impb inh
- CC(Oc1ccc([N+](=O)[O-])cc1Cl)C(=O)Nc1ccc(C(N)=O)cc1 (stereo not given)
 : 2.0	0.9	i	5.4%	5.5	0.638	5.8
- O=C(CSc1ccc(Br)cc1)N1CCOCC1
 : 1.0	-5.6	i	1.6%	2.0	0.685	?
- Cc1ccc(C)c(OCCSc2nnc(C)c(=O)[nH]2)c1
 : -0.7	-2.7	i	-1.3%	2.5	0.674	-0.9
- COc1cc(/C=C2\C(=O)N(CCC#N)N=C2C)c(Br)cc1OC(C)C
 : 2.0	.	.	.	6.9	0.689	3.5
- CCOC(=O)c1sc2nc(N3CCOCC3)c3c(c2c1N)CC(C)(C)N(C)C3
 : 0.3	.	.	0.3%	-429.8	0.728	-3.9
- CC(=O)N(C)Cc1ccc(C(=O)CSc2nnc(C3CC3)n2C2CC2)cc1
 : -5.1	-3.9	i	.	0.9	0.67	.
- Cc1cc(=O)oc2cc(NC(=O)CC3(CC(=O)O)CCCC3)ccc12
 : 1.6	0.8	i	.	i	0.699	0.3
- COc1ccc(CCN2CC(C(=O)Nc3nnc(Cc4ccccc4)s3)CC2=O)cc1OC (stereo not given)
 : -2.6	-1.9	i	-1.8%	1.4	0.674	.
- CC12/C(=N/O)C3C4CC5C3/C(=N/O)C1C5C42 (stereo not given)
 : 1.0	-31.3	i	-0.5%	.	.	0.3
- CCN(c1ccccc1)S(=O)(=O)c1cccc(C(=O)NCCOc2ccccc2OC)c1
 : -3.6	9.3	i	-4.0%	3.5	0.676	.
- CN(C)C(=O)C1C2NC(=S)N(c3ccc(Cl)cc3)C1(C)Oc1ccc(Cl)cc12 (stereo not given)
 : 2.0	18.6	i	1.7%	3.1	0.719	-0.8
- COc1cccc(CN2CCN(C(=O)c3cccc4ccccc34)CC2)c1
 : -1.5	-0.5	i	7.0%	4.5	0.672	5.7
- CC(C)(C)OC(=O)N/N=C/c1ccc(Br)cc1
 : -5.2	2.1	i	5.8%	.	.	2.4
- CC1(C(=O)NS(=O)(=O)c2cccc(Cl)c2)CCN1C(=O)c1cccc2ccccc12 (stereo not given)
 : 0.9	-0.3	i	.	.	.	.
- NC(=O)c1ccsc1NC(=O)CCS(=O)(=O)c1ccc(Cl)cc1
 : 6.2	0.0	i	.	1.1	0.693	.
- CN(CC1COc2ccccc2O1)C(=S)Nc1ccccc1F (stereo not given)
 : 2.5	.	.	.	1.5	0.698	?
- O=C(c1cccc(-n2cccc2)c1)N1CCN(S(=O)(=O)c2ccccc2)CC1
 : -47.5	14.8	i	17.3µM*	2.2	0.641	-7.9
- CCCCN(C(=O)COC(=O)c1nc2nc(C)cc(C)n2n1)C1CCS(=O)(=O)C1 (stereo not given)
 : 1.5	0.8	i	-7.3%	0.1	0.66	.
- COC(=O)C[C@H](NC(=O)Cn1cnc2c(OCc3ccccc3)ncnc21)C(=O)OC
 : -3.8	-1.4	i	0.2%	-0.6	0.712	.
- O=C(Nc1ccc(F)cc1)Nn1cnnc1
 : 0.5	-3.8	i	-2.6%	2.5	0.678	-1.2
- COc1cc(C)c(Br)cc1S(=O)(=O)N1CCCC1
 : -5.5	.	.	4.3%	1.6	0.782	7.0
- CCN(CC)c1ccc(/C=N/Nc2nc3ccccc3[nH]2)c(O)c1
 : 2.2	.	.	15.5%	.	.	8.1
- CCOC(=O)C1=C(COC(=O)c2cccnc2SC)NC(=O)NC1C (stereo not given)
 : -3.2	-0.2	i	.	-1.9	0.721	.
- COc1ccc(N2C(=O)CC(NCc3ccc(F)cc3)C2=O)cc1 (stereo not given)
 : 0.9	.	.	9.9%	6.7	0.7	-0.4
- O=C(NCC(=O)N1CCN(Cc2ccccc2)CC1)c1ccc(Br)o1
 : 1.5	-9.9	i	-7.3%	7.5	0.674	0.7
- Cc1ccccc1NC(=O)CSc1nc2n(n1)CCCCC2
 : -1.4	.	.	-8.3%	1.6	0.718	0.2
- O=C(CCC(=O)c1ccc(F)cc1)NC1CCCN(Cc2ccccc2F)C1 (stereo not given)
 : -1.0	-3.5	i	-2.6%	1.7	0.665	3.6
- CC(C)NC(=O)CCS(=O)(=O)c1cccc2nonc12
 : 4.7	.	.	-8.7%	5.3	0.739	-1.7
- CC(C)(C)C(=O)Cn1c(=O)n(-c2ccc(F)cc2F)c(=O)c2sccc21
 : 2.9	-2.0	i	3.1%	3.6	0.677	0.8
- O=C(NC1=NCCS1)C1CCCCC1
 : 11.6	4.8	i	-6.7%	1.2	0.709	-2.3
- CCn1nnc(-c2ccccc2NC(=O)c2cc(OC)cc(OC)c2)n1
 : -7.8	3.6	i	-7.3%	1.1	0.707	0.9
- O=C(NCCCN1CCCC1=O)c1nnc(Cc2c(F)cccc2Cl)o1
 : 2.2	.	.	-4.7%	3.5	0.67	-0.9
- CCCCc1ccc(-c2nc(-c3ccncc3)no2)cc1
 : 0.0	.	.	-1.9%	4.0	0.798	6.7
- Cn1c(SCC(=O)Nc2cc(S(=O)(=O)N3CCOCC3)ccc2N2CCOCC2)nnc1-c1ccncc1
 : -0.2	-2.7	i	-7.6%	-0.5	0.665	-5.7
- Cc1ccc(-n2cc(-c3ccccc3)c3c(N4CCN(C)CC4)ncnc32)cc1
 : -0.9	18.6	.	18.4%	-1.1	0.667	1.5
- CC1(C)C2CCC1(C)C(NC(=O)/C=C/c1ccccc1)C2 (stereo not given)
 : -2.5	4.8	i	.	4.4	0.59	-1.8
- CC1(C)CC(=O)C(C=NCCO)=C(O)C1
 : 2.1	.	.	-1.7%	5.2	0.709	-0.5
- CCCn1nnc(NC(=O)c2ccccc2Cl)n1
 : 0.7	-35.6	i	20.1%	1.0	0.642	3.1
- COCCCNC(=O)CSc1nc2ccccc2c(=O)n1CCc1ccc(S(N)(=O)=O)cc1
 : -1.0	-1.0	i	.	1.7	0.694	-2.6
- Cc1ccc(S(=O)(=O)Nc2ccc(C(=O)N3CCOCC3)cc2)cc1
 : 3.1	-1.2	i	.	4.1	0.701	-0.2
- O=[N+]([O-])c1ccccc1/C=C/C=N/n1c(-c2cc(-c3ccccc3)n[nH]2)n[nH]c1=S
 : -4.2	-1.2	i	1.9%	.	.	2.8
- Cc1cccc(-n2cccc2)c1C#N
 : 5.5	.	.	?	4.5	0.683	0.5
- COc1cc2c(cc1OC)C1=CC(=O)C(=O)N1C(C)(C)C2
 : 4.2	1.8	i	17.6%	-8.1	0.677	-1.4
- O=C(/C=C/c1ccccc1)OCc1cncs1
 : -0.7	-1.3	i	-3.9%	3.2	0.667	2.7
- CCc1ccc(C(=O)OCC(=O)N(CCOC)c2c(N)n(Cc3ccccc3)c(=O)[nH]c2=O)cc1
 : 0.3	1.2	i	2.8%	1.1	0.653	0.2
- CCOC(=O)C1=CCC2c3c(c4ccccc4n3C)C(=O)C1N2C(=O)OC(C)(C)C (stereo not given)
 : 0.5	-13.6	i	.	0.5	0.596&0.665	.
- CCc1nccn1CCC(=O)NC1CC(C)(C)Cc2c1cnn2-c1ccc(OC)cc1 (stereo not given)
 : 3.2	-0.9	i	.	3.4	0.716	-0.5

Screening data as filed in PubChem.

A portion of the library. The share of hits here may be higher or lower than overall.
